Rango-impB inh: qHTS Assay for Inhibitors of Rango (Ran-regulated importin-beta cargo) - Importin beta complex formation | Importin subunit beta-1 (Homo sapiens), Q14974 | Rango CFP/YFP FRET sensor + importin beta, 45 min | Potency, µM (highest dose often 92.2 µM), for inactives: at the top dose inhibition of complex formation | actives 0.031% (n = 340,000) | AID 540263, 2011; active = rising FRET ratio curve, often small or poorly fitted; inconclusive = mostly compound fluorescence or quenching in the first reads; inactive = flat curves in all reads;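 further: potency means the concentration at half of the fitted maximal effect; 0% = DMSO wells and 100% = buffer wells lacking importin beta; nearly all actives have a fitted effect of over 15% in size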
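FRET biosensor (snurportin 1 IBB flanked by EYFP and cerulean), 50 nM, with compound 5 min, then 0.125 microM importin beta in PBS, 1 mM DTT, 0.02% Tween-20, 0.1% BSA. CFP/YFP ratio read after 45 min at room temperature; pre-read flags interference.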
GLA inh pH 4.5: qHTS Assay for Inhibitors of Human alpha-Galactosidase at pH 4.5 | purified enzyme, 4-MU-alpha-Gal fluorescence, pH 4.5 | Alpha-galactosidase A (Homo sapiens), P06280 | activity change, negative = inhibition, % at 105 µM | AID 1467, 2008 | 230,000 tested, under 10 active; inconclusive = small, poorly fitted or top-dose-only inhibition, or a rising curve; inactive = flat fitted curve, though single readings scatter; no compound was filed as active;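 further: 0% = full activity with enzyme and -100% = basal without enzyme; dose as in the result columns while the protocol names 77 µM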
Target sequence (P06280 whole entry, looked up): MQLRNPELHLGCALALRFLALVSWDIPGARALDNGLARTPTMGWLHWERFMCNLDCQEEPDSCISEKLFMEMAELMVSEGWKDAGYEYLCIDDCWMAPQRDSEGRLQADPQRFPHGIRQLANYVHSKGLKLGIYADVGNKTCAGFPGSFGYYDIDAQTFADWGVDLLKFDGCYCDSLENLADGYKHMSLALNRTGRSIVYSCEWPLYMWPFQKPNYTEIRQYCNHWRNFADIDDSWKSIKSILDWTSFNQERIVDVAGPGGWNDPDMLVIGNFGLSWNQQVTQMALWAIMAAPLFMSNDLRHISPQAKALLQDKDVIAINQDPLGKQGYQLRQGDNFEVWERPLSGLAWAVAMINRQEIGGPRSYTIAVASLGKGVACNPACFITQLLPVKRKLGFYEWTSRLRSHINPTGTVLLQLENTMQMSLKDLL
miR-21 FLuc: qHTS Assay for Modulators of miRNAs and/orActivators of miR-21; HeLa miR-21 FLuc reporter, luciferase, 48 h; Potency, µM (top dose mostly 38.3 µM), without a hit: at the highest dose reporter change, positive = more light; 340,000 tested, under 10 active; AID 2288, 2010; active = well fitted rising curve with a large enough effect; inconclusive = small, poorly fitted or top-dose-only effect; inactive = no such curve, though single readings can be large or run the other way;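 further: % of control where 0% means no effect; miR-21 action dims this reporter so a rising signal means less miR-21 action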
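Using DMEM plus 10% FBS, HeLa miR-21-FLuc cells are incubated with test compounds (final up to about 40uM) for 48 hours; firefly luciferase signal is then imaged following reagent-mediated lysis.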
Rango release inh: qHTS Assay for Inhibitors of RanGTP induced Rango (Ran-regulated importin-beta cargo) - Importin beta complex dissociation | Snurportin-1 (Homo sapiens) + GTP-binding nuclear protein Ran (Homo sapiens) + Importin … | Biochemical FRET Rango-importin beta, RanGTP-induced dissociation | Potency, µM (top dose mostly 46.1 µM), without a hit: top-dose activity change, negative = inhibition | actives 0.071% (n = 340,000) | AID 540253, 2011; active means falling FRET ratio curve, often poorly fitted, with flat reads before Ran was added; inconclusive means other falling curves, or compound fluorescence or quenching; inactive means flat or rising ratio curve;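 further: potency means the concentration at half of the fitted maximal effect; % of control where 0% means no effect; nearly all actives have a fitted effect of over 45% in size; -100% = wells without RanGTP and RCC1; the record marks most hits as doubtful in a second field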
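Rango/importin beta premix (0.1/0.25 uM final), PBS + 1 mM DTT + 0.02% Tween-20 + 0.1% BSA; cpd 5 min RT; FRET pre-read; + RanGTP-RCC1 (0.6 uM Ran, 2 mM GTP, 0.2 uM RCC1); 45 min RT; FRET post-read, ex 430, em 486/530 nm.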
Active calls of the source: *; ? = inconclusive; nt = not tested or not shown; & = joins results of further samples. Only part of the results is shown (hit frequency here may not be typical).

Rango-impB inh	GLA inh pH 4.5	miR-21 FLuc	Rango release inh	SMILES
5.1%	?	14%	12%	COC(=O)C(C(=O)Nc1ccc(OC)cc1)C1CCCCCC1 (configuration not stated)
1.9%	nt	nt	-1%	O=C(COC(=O)/C=C/c1ccccc1)NC1CCCC1
4.1%	3	-22%	-1%	CC(=O)c1c(C)[nH]c(C(=O)NCCC2=CCCCC2)c1C
-0.8%	nt	5%	-13%	CCOc1nc(Nc2ccc(Cl)cc2)nc(OCC)n1
0.2%	nt	-2%	1%	O=C(C1CCCO1)N1CCN(S(=O)(=O)c2ccc(Cl)cc2)CC1 (configuration not stated)
3.7%	nt	5%	8%	Cc1ccc(Cl)cc1N(CC(=O)N1CCOCC1)S(C)(=O)=O
5.8%	-3	2%	1%	CC(C)(CO)NS(=O)(=O)c1ccc2c(c1)C(=NO)c1cc(S(=O)(=O)NC(C)(C)CO)ccc1-2
-2.6%	nt	1%	7%	CC(C)c1ccc(NS(=O)(=O)c2ccc(-n3cccn3)cc2)cc1
-0.1%	0&-9	0%	-2%	COC(=O)C1=C(C(=O)OC)[C@@H]2N(C)c3ccc(OC)cc3[C@@]23C[C@@H](C(=O)OC)N(S(=O)(=O)c2ccc(OC)cc2)C3=N1
-4.6%	nt	-48%	0%	CCOC(=O)C1(Cc2ccccc2)CCCN(C(=O)C=C(C)C)C1 (configuration not stated)
nt	3	3%	nt	CCC(=Nc1ccccc1)C1=C(O)CC(C)(C)CC1=O
-2.0%	4	-1%	-9%	N#CCCn1cc(/C=C/C(=O)O)c(-c2ccc(F)cc2)n1
?	10	-1%	?	CCN1CCN(c2cc(=O)n(-c3cc(Cl)ccc3C)c(=O)[nH]2)CC1
-0.5%	2	3%	6%	COc1ccc(-c2n(CC(=O)OC3CC(C)CCC3C(C)C)c3ccccc3[n+]2C)cc1 (configuration not stated)
-3.3%	-25	-4%	1%	Cn1c(SCC(=O)c2cc(Cl)c(Cl)s2)nnc1-c1ccco1
-3.8%	-7	2%	7%	Cc1ccc(S(=O)(=O)Cn2nnnc2CN2CCCC3(CCCCC3)C2)cc1
-1.5%	-2	-5%	-1%	Nc1c(C(=O)NCc2ccc3c(c2)OCO3)nnn1Cc1ccc(Br)cc1
1.7%	nt	12%	-6%	O=C(N/C(=C\c1cccc(Br)c1)C(=O)N1CCCCC1)c1ccco1
2.0%	nt	1%	-5%	O=C(O)CC(CNC(=O)C1CCCN1C(=O)OCc1ccccc1)c1ccccc1 (configuration not stated)
4.3%	-18	0%	4%	COc1cc(CNCc2ccccc2C(F)(F)F)cc(OC)c1
?	4	-14%	?	CCCCN(CC)c1nc(N)c(C#N)c(CC#N)c1C#N
3.6%	3	-2%	7%	COc1ccc(-n2c(COc3ccccc3)nnc2SCC(N)=O)cc1
nt	-6	-16%	nt	CCCc1nnc2n1N=C(c1ccc(-c3cc(Cl)ccc3Cl)o1)CS2
0.1%	4	-53%	23%	Cc1ccc(NC(=O)c2cn(-c3cccc(C)n3)cn2)cc1
-1.9%	nt	nt	-9%	Cc1nc2[nH]c(=S)[nH]c(=O)c2nc1C
-0.8%	-9	22%&27%	17%	O=C(c1ccc2c(c1)N(Cc1ccc(F)cc1)C(=O)c1ccccc1S2(=O)=O)N1CCN(c2ccccn2)CC1
0.1%	2	-16%	1%	C=CCNc1ncnc2c1[nH]c1ccc(C)cc12
1.7%	nt	nt	-8%	O=C(COC(=O)c1cccc(Br)c1)NC(=O)NC1CCCC1
1.1%	nt	-6%	0%	COc1ccccc1C(=O)Nc1ccnn1C1CCN(Cc2cnn(C)c2)CC1
1.6%	nt	-2%	10%	COc1ccc(NC(=O)CCc2nnc3ccc(NCc4ccco4)nn23)cc1OC
-5.0%	3	0%	-5%	COc1ccc(N(C(C)C(=O)NN=C2CCCC2)S(C)(=O)=O)cc1 (configuration not stated)
10%	nt	nt	7%	O=C(NCc1ccc(C(F)(F)F)cc1)c1ccc2c(c1)S(=O)(=O)c1ccccc1C2=O
5.4%	nt	1%	-8%	CC(=O)c1ccc(NC(=O)C2CCCN(S(=O)(=O)c3cccc4nonc34)C2)cc1 (configuration not stated)
2.4%	nt	-19%	12%	CCn1c(SCc2ccccc2)nc2c1c(=O)[nH]c(=O)n2C
0.6%	-1	0%	-6%	COc1ccc([N+](=O)[O-])cc1NC(=O)CSc1nncn1-c1ccccc1
1.7%	nt	-66%	-11%	C/C(=N\Nc1nncc2ccccc12)c1ccc(OCC(=O)N(C)C)cc1
6.1%	10	-3%	-9%	O=C(Nc1cccn2ncnc12)C(F)(F)F
0.7%	nt	0%	2%	O=C(N1CCOCC1)N1CCN(S(=O)(=O)c2ccc(F)cc2)CC1
-1.0%	nt	nt	33%	COc1ccc(S(=O)(=O)N2CCCCCC2)cc1C(=O)N(C)CC(=O)Nc1c(Cl)cccc1Cl
3.5%	8	-1%	-1%	Cc1cccc(C)c1NC1=NC(C)(C)N=C(N)N1
-0.5%	-3	-4%	-1%	CC(C)Cn1c(N)c(C(=O)COC(=O)c2ccncc2)c(=O)n(C)c1=O
0.7%	-4	-7%	-13%	Nc1ccc(C(=O)N/N=C\C=C\c2ccc([N+](=O)[O-])cc2)cc1
1.0%	0	1%	1%	OCCN(Cc1ccccc1)C(=S)NC1CCCCC1
-3.5%	nt	-4%	5%	CC(C)Cc1nc(N2CCN(C(=O)c3ccco3)CC2)c(C#N)c2c1CCCC2
-1.0%	nt	-32%	1%	Cc1csc(CN(C)C(=O)c2cn(Cc3cccc4ccccc34)nn2)n1
-3.5%	nt	nt	-8%	CCOC(=O)/C=C1/SCC(=O)N1CC(=O)c1ccc[nH]1
0.6%	nt	-17%	16%	O=C(N/N=C/c1cc(Br)c(Br)o1)c1cc2ccccc2o1
-2.5%	-13	5%	-26%	Cc1cc(C)n(CC(=O)NCc2cc(-c3nn(C)c(=O)c4ccccc34)ccc2C)n1
0.4%	nt	-1%	0%	O=C(O)CN1C(=O)NC2(CCCc3ccccc32)C1=O (configuration not stated)
-1.6%	3	2%	-16%	CN1C(=O)CSc2ccc(NC(=O)NCc3ccco3)cc21
?	-25	-6%	?	Cc1c(-n2cc(C(=O)c3ccccc3O)cc(C#N)c2=O)c(=O)n(-c2ccccc2)n1C
0.4%	3	-7%	-3%	Cc1ccc(NC(=O)c2ccc(NCc3ccc(F)cc3)nc2)cc1
-0.1%	-7	8%	10%	CCn1cc(CN2CCCC(C(=O)c3ccc(-c4ccccc4)c(F)c3)C2)cn1 (configuration not stated)
4.8%	4	3%	-4%	CCOC(=O)c1[nH]c2cc(OC)c(OC)cc2c1NC(=O)CCN1CCSCC1
-2.5%	-3	-2%	7%	COC(=O)c1ccc(COc2ccccc2/C=N/NS(=O)(=O)c2ccccc2)cc1
-0.9%	nt	nt	6%	CCCCn1c(N)c(N(Cc2ccccc2OC)C(=O)CSCC(=O)Nc2ccc(C)cc2)c(=O)[nH]c1=O
-3.0%	-2	0%	17%	Cc1onc(-c2c(Cl)cccc2Cl)c1C(=O)N1CCc2ccccc2C1
-2.9%	-3	-59%	-3%	O=C(c1ccccc1)c1c[nH]c2cc3c(cc2c1=O)OCCO3
2.4%	nt	nt	-2%	O=C(COC(=O)COc1ccccc1)NCCC1=CCCCC1
1.1%	0	0%	1%	Cc1csc(=Nc2cccnc2)n1Cc1ccco1

Some of these compounds in order of SMILES length, ascending:
Rango-impB inh	GLA inh pH 4.5	miR-21 FLuc	Rango release inh	SMILES
-0.8%	nt	5%	-13%	CCOc1nc(Nc2ccc(Cl)cc2)nc(OCC)n1
3.5%	8	-1%	-1%	Cc1cccc(C)c1NC1=NC(C)(C)N=C(N)N1
1.7%	nt	nt	-8%	O=C(COC(=O)c1cccc(Br)c1)NC(=O)NC1CCCC1
4.1%	3	-22%	-1%	CC(=O)c1c(C)[nH]c(C(=O)NCCC2=CCCCC2)c1C
-2.9%	-3	-59%	-3%	O=C(c1ccccc1)c1c[nH]c2cc3c(cc2c1=O)OCCO3
0.7%	nt	0%	2%	O=C(N1CCOCC1)N1CCN(S(=O)(=O)c2ccc(F)cc2)CC1
1.7%	nt	-66%	-11%	C/C(=N\Nc1nncc2ccccc12)c1ccc(OCC(=O)N(C)C)cc1
4.8%	4	3%	-4%	CCOC(=O)c1[nH]c2cc(OC)c(OC)cc2c1NC(=O)CCN1CCSCC1
-2.5%	-13	5%	-26%	Cc1cc(C)n(CC(=O)NCc2cc(-c3nn(C)c(=O)c4ccccc34)ccc2C)n1
10%	nt	nt	7%	O=C(NCc1ccc(C(F)(F)F)cc1)c1ccc2c(c1)S(=O)(=O)c1ccccc1C2=O
?	-25	-6%	?	Cc1c(-n2cc(C(=O)c3ccccc3O)cc(C#N)c2=O)c(=O)n(-c2ccccc2)n1C

New compounds follow
Rango-impB inh	GLA inh pH 4.5	miR-21 FLuc	Rango release inh	SMILES
-1.2%	-14	-2%	4%	COc1c(/C=N/Nc2ccc([N+](=O)[O-])cc2[N+](=O)[O-])c(C)nn1-c1ccccc1
2.5%	-30	-6%	1%	CCN1CCN(C(=O)c2ccc(OC)c(S(=O)(=O)Nc3ccc(C)cc3)c2)CC1
-1.2%	8	-11%	-12%	O=C(c1ccco1)N1CCN(C(c2cccs2)c2nnnn2C2CCCCC2)CC1 (configuration not stated)
?	5	-5%	?	COC(=O)c1ccc(COc2ccc(/C=C(\C#N)c3nc4ccccc4[nH]3)cc2OC)o1
3.4%	14	-5%	0%	COc1ccc2[nH]c(=O)c(CN(C(=O)c3ccco3)C(C)C)cc2c1
2.2%	3	-5%	0%	O=c1nc(N2CCCCC2)nc2n1CCO2
-1.1%	nt	nt	26%	O=S(=O)(c1ccc(Br)cc1F)N1CC[C@H](O)C1
0.1%	nt	15%	-11%	CCCc1cc(=O)n2[nH]cc(-c3ccc(Cl)cc3)c2n1
-1.5%	-4	4%	7%	CCCNC(=O)c1onc(CSc2ccccn2)c1C(=O)NCCC
-2.1%	0	-6%	?	Cc1ccc(CNC(=O)CC2C(=O)Nc3c2c(=O)n(C)c(=O)n3Cc2ccccc2)cc1 (configuration not stated)
0.4%	0	-1%	0%	COc1ccccc1C1NC(=O)NC(C)=C1C(=O)Nc1cccc(C)c1C (configuration not stated)
2.5%	1	-9%	8%	COC(=O)c1sc2nc(SCc3ccccc3C#N)n(N)c(=O)c2c1C
-5.3%	nt	0%	-5%	COc1cccc(NC(=O)C2CC(=O)N(Cc3ccc(C)cc3)C2)c1 (configuration not stated)
?	nt	nt	26%	O=C(CCSc1ccccc1Cl)NNC(=O)c1ccncc1
0.7%	4	-6%	-1%	Cc1ccc(N2C(=O)SC(Cc3ccccc3)C2=O)cc1 (configuration not stated)
0.4%	-5	1%	13%	O=C(N/N=C/c1ccc(N2CCOCC2)cc1)C1COc2ccccc2O1 (configuration not stated)
-3.9%	-2	-2%	-4%	CCOC(=O)N1CCN(C(=O)c2cc(-n3cnnc3)ccc2Cl)CC1
-1.4%	-3	4%	7%	O=C(O)c1cccnc1SCc1cn2cc(Br)ccc2n1
-0.6%	7	0%	-4%	CCn1c(Cc2ccccc2)nnc1SCc1cccc(C(=O)O)c1
-0.5%	1	2%	2%	CN1CCN(CC(=O)Nc2ccccc2Oc2ccccc2)CC1
1.5%	6	4%&17%	16%	CNC(=O)c1cc(Nc2nnc(-c3ccc(O)cc3)c3ccccc23)ccc1OC
2.3%	2	0%	?	Cn1c(C(=O)Nc2ccc3c(c2)OCO3)cc2c(=O)n(C)c3ccccc3c21
9.3%	6	0%	-7%	Cc1ccc(NC(=O)C(Cc2ccccc2)NC(=O)c2ccco2)cc1 (configuration not stated)
